# Marburg entry inh – blocks Marburg virus binding to or entry into cells; Marburg virus pseudotyped entry inhibition, cell reporter; control for the full effect not named in the record; about a third of the inactives were read at about 46 µM; Potency, µM (series often up to 37.8 µM), for the others: at the highest dose activity change, negative = inhibition, actives largely listed as inhibitors; 300,000 compounds, 1.8% hits; active = well fitted inhibition curve with a large enough effect; inconclusive = small, poorly fitted or top-dose-only effect, or effect the other way; inactive = flat fitted curve, though single readings scatter; tested in HEK293 cells; about a fifth of its hits are not listed in these tables; also: % is scaled to controls: 0 for no effect and ±100 for the full control effect; luciferase read-out
# LASV entry inh – blocks Lassa virus binding to or entry into cells; 300,000 compounds, 1.2% hits; Potency, µM (doses to about 37.9 µM), for inactives: at the highest dose activity change, negative = inhibition, most hits filed as inhibitors; AID 540256; Lassa virus pseudotype entry inhibition, cell reporter; control for the full effect not named in the record; active means well fitted inhibition curve with a large enough effect; inconclusive means small, poorly fitted or top-dose-only effect, or effect the other way; inactive means flat fitted curve, though single readings scatter; tested in HEK293 cells; also: % is scaled to controls: 0 for no effect and ±100 for the full control effect; nearly all actives have a fitted effect of over 50% in size; luciferase read-out
# SARS PLpro yeast – inhibitors of SARS-CoV papain-like protease in yeast. S. cerevisiae expressing SARS-CoV PLpro, growth rescue; control for the full effect not named in the record. Potency, µM (doses to about 32.9 µM), inactives show top-dose activity, positive = growth rescue. 330,000 compounds, 0.19% hits. AID 485353; also: 0% is about no effect; nearly all actives have a fitted effect of over 55% in size; growth read by luminescence after 48 h
# StopGo reporter – lowers the luciferase signal of an FMDV 2A StopGo reporter. AID 1159524. human cells with a luciferase reporter of 2A StopGo recoding; control for the full effect not named in the record. 410,000 compounds, 1.2% hits. Potency, µM (titrated, usually from 57.9 µM), for the others: at the top dose signal change, negative = less light; active = well fitted falling curve with a large enough effect; inconclusive = small, poorly fitted or top-dose-only effect; inactive = no such curve, though single readings can be large or run the other way; tested in HEK293T cells; also: % is scaled to controls: 0 for no effect and ±100 for the full control effect; nearly all actives have a fitted effect of over 45% in size; luciferase light after 4 h
# Cruzain Triton – inhibitors of Trypanosoma cruzi cruzain with detergent | purified cruzain, Z-FR-AMC fluorescence, 0.01% Triton | AID 1478 | 200,000 compounds, 0.43% hits | Potency, µM, without a hit: max response, negative = inhibition, actives largely listed as inhibitors | P25779; active = well fitted curve in the direction sought with a large enough effect; inconclusive = small, poorly fitted or top-dose-only effect, or another doubt; inactive = no such curve, though single readings can be large; an effect the other way counts as inactive or inconclusive;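 also: plate controls were neutral wells for no effect and buffer without enzyme for full effect; nearly all actives have a fitted effect of over 40% in size; top concentration of the series not given in the record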
# Target sequence (P25779 123-467 limits assumed): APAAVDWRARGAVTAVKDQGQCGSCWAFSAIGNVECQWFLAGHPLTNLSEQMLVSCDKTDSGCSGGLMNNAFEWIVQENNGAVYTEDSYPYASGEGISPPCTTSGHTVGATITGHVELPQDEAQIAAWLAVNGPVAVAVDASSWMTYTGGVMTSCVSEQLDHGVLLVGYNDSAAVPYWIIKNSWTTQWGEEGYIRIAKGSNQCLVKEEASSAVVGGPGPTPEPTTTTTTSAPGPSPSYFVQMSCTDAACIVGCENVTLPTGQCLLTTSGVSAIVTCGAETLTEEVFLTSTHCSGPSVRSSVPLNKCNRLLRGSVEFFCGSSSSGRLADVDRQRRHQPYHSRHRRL
#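 Read-out: AMC fluorescence (360 nm excitation, 450 nm emission), four reads over 2 min, first-to-third difference used. Conditions: cruzain 1.5 nM, Z-FR-AMC 2 uM, pH 5.5 acetate, 5 mM DTT, 0.01% Triton X-100.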
# NS1 inh – blocks influenza NS1 protein function; S. cerevisiae slowed by influenza A NS1, growth recovery by OD600; Potency, µM (titrated, usually from 46.1 µM), without a hit: at the highest dose activity, positive = more growth; 270,000 compounds, 0.4% hits; AID 2326; also: actives are rising curves; nearly all actives have a fitted effect of over 50% in size
#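 Recovery from NS1-induced slow growth read by OD600 in budding yeast switched to galactose assay medium (pH 6.0, -URA) at 1:100 dilution. Compound 23 nl per well; the matching strain lacking NS1 serves as control.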
# RE007 growth inh – less growth of the S. pombe RE007 Vpr strain | S. pombe RE007 Vpr strain, BacTiter-Glo ATP luminescence, 24 h; control for the full effect not named in the record | Potency, µM (doses to about 92.2 µM), for inactives: at the highest dose activity change, negative = less growth | 360,000 compounds, 0.21% hits | AID 651644; active = well fitted falling curve with a large enough effect; inconclusive = small, poorly fitted or top-dose-only effect; inactive = no such curve, though single readings can be large or run the other way;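 also: % is scaled to controls: 0 for no effect and ±100 for the full control effect; nearly all actives have a fitted effect of over 50% in size; the assay follows cell death caused by Vpr and the record does not say whether a fall means rescue or toxicity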
#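 Fission yeast strain RE007, carrying one chromosomally integrated HIV-1 vpr copy, was seeded at OD 0.01 in PMG+AL medium with 23 nL pinned compound. After 24 h at 30 °C and 99% humidity, viability was read by BacTiter-Glo luminescence.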
# Cruzain inh noDet – blocks cruzain activity in detergent-free assay | 200,000 compounds, 2.3% hits | Potency, µM, for inactives: max response, negative = inhibition, most hits filed as inhibitors | purified cruzain, Z-FR-AMC fluorescence, no detergent | P25779; active = well fitted curve in the direction sought with a large enough effect; inconclusive = small, poorly fitted or top-dose-only effect, or another doubt; inactive = no such curve, though single readings can be large; an effect the other way counts as inactive or inconclusive;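 also: plate controls were enzyme without inhibitor for no effect and buffer without enzyme for full effect; nearly all actives have a fitted effect of over 40% in size; top concentration of the series not given in the record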
#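 Purified cruzain at 1.5 nM, pre-incubated 15 min with compound at room temperature in 100 mM sodium acetate pH 5.5, 5 mM DTT, 0.00005% Triton X-100. Reaction started with 2 uM Z-FR-AMC; AMC fluorescence increase over 60 s gives rate.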
# Starred values were filed as active, the others as inactive; ? = inconclusive; . = not tested or not shown; & = joins results of further samples; [ ] = another dose, or the depositor's remark. Unless noted, calls follow the shape of the dose curve; as a rule, active means well fitted rising curve with a large enough effect; inconclusive means small, poorly fitted or top-dose-only effect; inactive means no such curve, though single readings can be large or run the other way. Potency is read from the fitted curve at half-maximal effect.
Compound,Marburg entry inh,LASV entry inh,SARS PLpro yeast,StopGo reporter,Cruzain Triton,NS1 inh,RE007 growth inh,Cruzain inh noDet
CCOc1ccc(OCCOC(=O)CNC(=O)c2ccc(Cl)cc2Cl)cc1,2.0%,0.3%,4.9%,-0.1%,.,.,-26.5%,.
C/C(=N\NC(=S)NC1CCCCC1)c1c(F)cccc1F,?,?,-6.4%,-11.6%,.,.,-23.6%,.
Cn1c(=O)[nH]c2cc(-c3noc(-c4ccc(C#N)cc4)n3)ccc21,.,2.0%[46.1 µM],.,4.3%,-0.2%,.,.,3.2%
O=C(CCCN1C(=O)c2ccccc2C1=O)N1CCc2ccccc2C1,-0.1%,-0.7%,-9.2%,15.1%,2.6%,-15.8%,17.7%[3.69 µM],7.8%
COc1ccc(C2CC(=O)Oc3c(C(CCN4CCN(c5ccccc5)CC4)c4ccc(N(C)C)cc4)c(OC)cc(OC)c32)cc1 (centres undefined),.,.,7.2%,-10.8%,.,0.7%,-15.9%,.
COc1ccc(S(=O)(=O)Nc2ccccc2C)cc1C(=O)N1CCOCC1,0.3%[46.1 µM],-5.2%,-0.9%,1.0%,.,7.6%,-2.9%,.
O=C(CSc1ncc2c(n1)-c1ccccc1N(Cc1ccc(Cl)cc1)S2(=O)=O)c1ccccc1,.,15.2%[46.1 µM],.,-10.0%,2.5%,.,.,10.2%
COc1cccc(C(C(=O)NC2CCCC2)N(C(=O)c2ccco2)c2ccc(NC(C)=O)cc2)c1OC (centres undefined),2.3%[46.1 µM],3.4%,0.3%,-0.4%,.,-2.4%,1.2%,.
O=C(COc1ncnc2ccccc12)Nc1ccccc1[N+](=O)[O-],3.2%[46.1 µM],1.0%,2.9%,8.3%,.,.,9.2%,.
CC1CCC2CCCCC2N1C(=O)c1cc([N+](=O)[O-])cc([N+](=O)[O-])c1 (centres undefined),-8.4%[46.1 µM],-3.0%,2.0%,-20.3%,.,?,2.5%,.
CC(=O)c1c(C)nc2ccccc2c1N,6.4%,?,1.8%,-16.6%,-0.4%,-1.3%,?,0.4%
Cc1cc(C)c(/C=C/c2onc(C)c2S(=O)(=O)N2CCC(C(=O)Nc3ccc(Cl)c(C(F)(F)F)c3)CC2)c(C)c1,.,24.7%[46.1 µM],.,?,0.4%,.,.,5.3%
CN(C)C(=O)COC(=O)c1cccc(CN2C(=O)c3ccccc3C2=O)c1,4.7%[46.1 µM],-2.1%,-0.6%,-18.5%,.,.,22.2%,.
Cc1ccc(C)c(NC(=O)CSc2nc(=O)n(CCN3CCOCC3)c3c2CCCC3)c1,-18.8%,48.2%,2.5%,16.5%,.,.,2.6%,.
Cc1cccc(OCCCC(=O)Nc2ccc(S(=O)(=O)Nc3ncccn3)cc2)c1C,.,.,2.2%,1.9%,.,18.7%,10.6%,.
COc1ccc(NC(=O)Cn2cnc3sc(C)c(S(=O)(=O)N4CCN(c5ccccc5OC)CC4)c3c2=O)cc1OC,1.4%[46.1 µM],?,.,-6.7%,-2.3%,.,.,?
COc1ccc(COc2ccsc2C(=O)Nc2ccc(Cl)cc2)cc1,-9.7%,-6.1%,-4.9%,-14.6%,6.3%,3.3%,0.9%,-8.6%
O=C(COc1ccc(S(=O)(=O)N2CCCCC2)cc1)NCc1cccnc1,-3.6%,3.3%,-0.3%,-12.9%,0.7%,-2.0%,-13.5%,-2.7%
CCC1CCCCN1C(=O)CSc1nc2c([nH]c3ccccc32)c(=O)n1C (centres undefined),?,?,-12.7%,34.7%[activator],-4.7%,-15.6%,7.1%,12.5%
CSc1nn(Cc2ccc(Cl)cc2)c(N(C(C)=O)C(C)=O)c1S(=O)(=O)c1ccccc1,?,?,.,-18.3%,-5.5%,.,.,-1.8%
CC1Cc2cc(/C(O)=C3/C(=O)C(=O)N(CCCn4ccnc4)C3c3ccc(Br)cc3)ccc2O1 (centres undefined),.,.,0.7%,-6.1%,.,-5.6%,-12.0%,.
CCCCNC(=S)N(CCCN(C)C)Cc1cc2cc3c(cc2[nH]c1=O)OCO3,.,.,1.9%,-9.3%,.,16.5%,-6.3%,.
COC(=O)C1=C(O)/C(=C\c2ccc(O)c(OC)c2)N=C1C,?,1.1%,-0.1%,14.2%,1.4%,17.0%,-7.2%,-0.2%
O=C(Cn1cccc1C(=O)c1ccccc1)NCCN1CCOCC1,-2.0%,15.3%,-10.2%,-15.7%,-2.7%,-2.8%,3.4%,25.9%
Cc1cccc(OCC(=O)N(Cc2cccs2)C2CCS(=O)(=O)C2)c1C (centres undefined),8.1%,-16.7%,-0.6%,-12.1%,2.2%,6.5%,-4.5%,21.8%
Cn1c(=O)n(-c2ccc3c(c2)OCO3)c2nc(-c3ccc(Cl)cc3)nc(C(N)=O)c21,?,21.9%[46.1 µM],.,-8.0%,-2.4%,.,.,-11.7%
Cc1ccc(C(=O)NCCc2nnc3ccc(SCC(=O)Nc4cc(C)on4)nn23)cc1,18.1%[46.1 µM],0.9%[46.1 µM],0.7%,-9.4%,.,.,-10.6%,.
CCOC(=O)c1ccc(NC(=O)COc2ccc(S(=O)(=O)NC(C)C)cc2)cc1,-27.9%,-21.8%,1.1%,.,-5.9%,-12.9%,-1.3%,7.4%
COc1cc(C(=O)N2CCN(S(=O)(=O)c3ccc(F)cc3)CC2)cc(OC)c1OC,-4.3%,11.8%,22.3%,-18.1%,0.9%,-1.4%,17.9%,5.4%
CSc1cccc(NS(=O)(=O)c2ccccc2)c1,-8.1%,11.4%,-0.3%,19.0%,2.4%,-7.8%,12.2%,-6.4%
O=C(CCNS(=O)(=O)c1ccccc1)N1CCN(c2ccccc2F)CC1,?,-18.1%,-3.5%,-0.2%,.,-0.7%,-9.3%,.
CCN(C(=O)COC(=O)CCC(=O)c1cccs1)c1c(N)n(Cc2ccccc2)c(=O)[nH]c1=O,10.6%,-2.1%,-1.0%,-29.2%,.,.,-8.4%,.
CC(=O)Oc1ccc(N(C(C)=O)S(=O)(=O)c2cc([N+](=O)[O-])ccc2C)cc1,-15.5%,1.6%,9.7%,-13.8%,-1.0%,5.7%,-4.6%,-3.8%
CCC1Sc2ccc(S(=O)(=O)Nc3ccc(OC)c(OC)c3)cc2NC1=O (centres undefined),?,?,25.7%,-21.2%,.,1.1%,8.7%,.
CCOC(=O)Cc1csc(NC(=S)NC(=O)CC(C)C)n1,?,-9.8%[46.1 µM],-31.6%,-7.4%,-3.7%,-6.5%,10.0%,-23.7%
Cc1cc(Cl)ccc1NC(=O)c1cc(S(=O)(=O)N2CCOCC2)cn1C,.,0.0%[46.1 µM],.,-5.4%,-1.3%,.,.,-8.6%
N#C/C(=C/c1ccc(-c2ccc([N+](=O)[O-])cc2)o1)C(=O)Nc1nc(-c2cccs2)cs1,5.8%[46.1 µM],?,.,-13.9%,.,.,-6.2%,.
C[C@]12CCC3C(CC[C@H]4C[C@H](OC(=O)c5cccnc5)CC[C@]34C)C1CCC2=O (some centres undefined),?,4.1%[46.1 µM],-3.8%,?,.,.,9.7%,.
Cc1ccc2nnc(Cl)n2n1,-0.3%,0.7%,4.3%,1.8%,0.7%,1.8%,-1.0%,-1.2%
Cc1[nH]c2ccc(C(C)C)cc2c1CC(=O)O,-3.0%[46.1 µM],-8.6%,-2.6%,-9.7%,.,7.6%,26.9%,.
Cc1ccc(/C(O)=C2\C(=O)C(=O)N(CCc3c[nH]c4ccccc34)C2c2cccnc2)cc1 (centres undefined),20.1%[46.1 µM],9.1%[46.1 µM],-1.6%,10.2%,.,.,-1.8%,.
COc1ccc(NC(=O)/C(C#N)=C\c2cc(OC)c(OCc3ccc(C(=O)O)cc3)cc2Br)cc1,14.2%[46.1 µM],12.9%,-2.2%,-4.1%,.,.,-6.0%,.
O=C(Nc1nc2ccccc2s1)c1cc2c(s1)-c1ccccc1OC2,.,.,1.7%,26.9%,-1.2%,5.2%,-10.5%,12.6µM*
CCc1ccc2c(c1)NC(c1ccc(F)cc1)=NC(c1ccncc1)=N2,3.1%[46.1 µM],4.5%[46.1 µM],.,-25.8%,-4.2%,.,.,12.2%
CCn1c(SCC(=O)Nc2nc3c(s2)CCCC3)nnc1-c1ccccc1,-7.0%,-28.9%[14.3 µM],1.6%,-22.1%,-9.3%,-1.0%,15.2%,0.8%
Cn1c(=O)[nH]c(=O)c2c1nc(NCCCO)n2Cc1ccc(F)cc1,5.9%,-0.1%,2.0%,1.0%,1.3%,1.1%,16.4%,-12.8%
CC12CCC(C(=O)N(NC(=O)c3cccnc3)C1=O)C2(C)C (centres undefined),8.1%,-18.7%,-16.9%,-20.6%,-2.1%,29.1%,1.5%,-11.9%
CC[C@H]1OC(=O)[C@H](C)[C@@H](O[C@H]2C[C@@](C)(OC)[C@@H](O)[C@H](C)O2)[C@H](C)[C@@H](O[C@@H]2O[C@H](C)C[C@H](N(C)C)[C@H]2O)[C@](C)(O)C[C@@H](C)[C@@H]2N[C@@H](COCCOC)O[C@H]([C@H]2C)[C@]1(C)O,?,4.8%,0.6%,-29.5%,-2.2%,-19.2%,7.6%,0.5%
Cc1ccc(-c2nn(C)c(=O)c3ccccc23)cc1CO,-4.1%,-8.3%,-6.4%,9.2%,-1.7%,-5.4%,-3.3%,13.5%
Cc1ccccc1CCN(C(=O)CN1C(=O)c2ccccc2S1(=O)=O)C(C(=O)NCC1CCCO1)c1ccncc1 (centres undefined),22.7%,1.2%,15.5%,23.5%,-1.3%,-4.2%,-1.7%,?
Cc1cccc(NC(=O)c2nc[nH]c2C(=O)N[C@@H](CCCCNC(=O)OC(C)(C)C)C(=O)OC(C)(C)C)c1,.,.,-0.7%,?,.,?,-8.2%,.
CCc1ccc(-c2cc(C)no2)cc1S(=O)(=O)NCc1ccco1,.,-20.6%[46.1 µM],-21.4%,34.9%&83.0%[activator],-2.7%,-20.6%,4.5%,-1.8%
c1ccc(COc2cccc(CN3CCCCC3)c2)cc1,.,.,0.8%,-20.8%,.,7.3%,-7.1%,.

# Compound activity from PubChem.
